FGF22 binding – FGF22 (human) thermal shift binding. 340,000 compounds, 1.5% hits. recombinant FGF22 thermal shift, SYPRO orange fluorescence; percent of sucrose octasulfate shift, DMSO zero. calls only at 9.99 µM. Q9HCT0. AID 651658;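 active = melting point raised past a set limit in the mean and every replicate; three in four hits are not shown here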
Target sequence (Q9HCT0 whole entry, looked up): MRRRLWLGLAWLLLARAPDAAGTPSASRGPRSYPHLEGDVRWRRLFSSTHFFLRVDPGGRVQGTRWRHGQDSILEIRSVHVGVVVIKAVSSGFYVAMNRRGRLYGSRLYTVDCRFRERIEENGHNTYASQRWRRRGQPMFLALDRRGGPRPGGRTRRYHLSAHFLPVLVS
Calls only; i = inactive. Only part of the results is shown; the hit share may differ from the screen's.

SMILES	FGF22 binding
CC=Cc1ccc2n(c1=O)C[C@@H]1[C@@H](CO)[C@H](C(=O)NCC3CC3)[C@H]2N1Cc1cccnc1 (mixture of isomers)	i
COc1ccc(NC(=O)N(C)C[C@H]2OCCCC[C@@H](C)Oc3ccc(NC(=O)NC4CCCCC4)cc3C(=O)N([C@H](C)CO)C[C@H]2C)cc1	i
CC(C)NC(=O)N(C)C[C@H]1Oc2ncc(C#CCc3ccccc3)cc2C(=O)N([C@@H](C)CO)C[C@H]1C	i
Cc1ccccc1S(=O)(=O)NCC[C@@H]1CC[C@H](NC(=O)Nc2cccc(Cl)c2)[C@H](CO)O1	i
C[C@H]1CN([C@@H](C)CO)S(=O)(=O)c2ccc(C3=CCCCC3)cc2O[C@H]1CN(C)C(=O)C1CCCCC1	i
COCC(=O)N1[C@H](C#N)[C@H](c2ccccc2-c2cccc(OC)c2)[C@@H]1CO	i
C[C@H](CO)N1C[C@H](C)[C@@H](CN(C)S(=O)(=O)c2ccc(F)cc2)Oc2cc(C3=CCCCC3)ccc2S1(=O)=O	i
C[C@H](CO)N1C[C@H](C)[C@H](CN(C)Cc2ccc(C(=O)Nc3ccccc3N)cc2)Oc2ccc(NS(=O)(=O)c3ccc(Cl)cc3)cc2CC1=O	i
COc1ccc(C#Cc2ccc3c(c2)O[C@@H](CN(C)C)[C@@H](C)CN([C@@H](C)CO)S3(=O)=O)cc1	i
C[C@@H]1CN([C@@H](C)CO)C(=O)Cc2cc(NC(=O)Nc3ccc(C(F)(F)F)cc3)ccc2O[C@H]1CN(C)S(=O)(=O)c1ccccc1	i
O=C(C[C@H]1CC[C@@H]2[C@H](COC[C@H](O)CN2S(=O)(=O)c2ccc(F)cc2)O1)NCc1ccc(Cl)c(Cl)c1	i
COc1ccc(S(=O)(=O)Nc2ccc3c(c2)C(=O)N([C@H](C)CO)C[C@H](C)[C@@H](CN(C)C(=O)c2ccccc2)OCCCC[C@@H](C)O3)cc1	i
Cc1ccc(S(=O)(=O)Nc2ccc3c(c2)C(=O)N([C@@H](C)CO)C[C@H](C)[C@@H](CN(C)Cc2ccncc2)OCCCC[C@H](C)O3)cc1	i
CCCN1[C@@H]2Cn3c(ccc(C4=CCCC4)c3=O)[C@H]1[C@@H](C(=O)NCc1ccccn1)[C@@H]2CO	i
C[C@H]1CN([C@@H](C)CO)C(=O)Cc2cc(NC(=O)NC3CCCCC3)ccc2O[C@@H]1CN(C)S(=O)(=O)c1ccc(F)cc1	i
Cc1ccc(S(=O)(=O)N[C@H]2C=C[C@H](CC(=O)NCc3ccc(Cl)c(Cl)c3)O[C@H]2CO)cc1	i
C[C@@H]1CN([C@H](C)CO)C(=O)c2cc(C#CCC3CCCC3)cnc2O[C@H]1CN(C)C(=O)CC1CC1	i
O=C(Nc1ccccc1F)N1CCCCN2[C@H](C1)[C@H](c1ccc(C3=CCCCC3)cc1)[C@@H]2CO	i
C[C@@H]1CN([C@@H](C)CO)S(=O)(=O)c2ccc(-c3ccccc3)cc2O[C@@H]1CN(C)S(C)(=O)=O	i
CCCC(O)C#Cc1cnc2c(c1)C(=O)N([C@H](C)CO)C[C@H](C)[C@H](CN(C)C(=O)Nc1c(C)noc1C)O2 (stereo partly specified)	i
C[C@@H]1CN([C@H](C)CO)C(=O)Cc2cc(NS(=O)(=O)c3ccc(F)cc3)ccc2O[C@@H]1CN(C)S(=O)(=O)c1ccc(Cl)cc1	i
CN(C)C(=O)C[C@@H]1CC[C@H](NC(=O)C2CC2)[C@H](CO)O1	i
COc1ccc(NC(=O)Nc2ccc3c(c2)C(=O)N([C@@H](C)CO)C[C@@H](C)[C@@H](CN(C)C(=O)CCCN(C)C)OCCCC[C@H](C)O3)cc1	i
CO[C@@H]1CN(C)C(=O)c2cc(NC(=O)Nc3ccccc3Cl)ccc2OC[C@@H](C)NC[C@@H]1C	i
C[C@@H]1CCCCO[C@@H](CN(C)Cc2ccc(C(=O)Nc3ccccc3N)cc2)[C@@H](C)CN([C@H](C)CO)C(=O)c2cc(NS(=O)(=O)c3ccc(Cl)cc3)ccc2O1	i
O=C(NCC1CC1)[C@@H]1[C@@H](CO)[C@@H]2Cn3c(ccc(-c4cccnc4)c3=O)[C@H]1N2C(=O)C1CCCCC1	i
COC(=O)c1ccccc1	i
C[C@@H]1CCCCO[C@@H](CN(C)Cc2ccncc2)[C@@H](C)CN([C@@H](C)CO)C(=O)c2cc(NC(=O)c3ccncc3)ccc2O1	i
COc1cccc(NC(=O)Nc2ccc3c(c2)C(=O)N(C)[C@@H]2CC[C@@H](CC(=O)NCCc4ccccc4)O[C@H]2CO3)c1	i
CCNC(=O)C[C@@H]1C=C[C@@H](NS(=O)(=O)c2ccc(C)cc2)[C@@H](CO)O1	i
CN1c2ccc(-c3cccc(C#N)c3)cc2[C@@H]2[C@@H](CCN2C(=O)CC2CC2)[C@H]1CO	i
CO[C@@H]1CN(C)C(=O)c2ccc(NC(=O)Nc3cccc(F)c3)cc2OC[C@H](C)N(C)C[C@H]1C	i
CO[C@@H]1CN(C)C(=O)c2cc(NS(=O)(=O)c3cn(C)cn3)ccc2OC[C@@H](C)N(Cc2cccc(F)c2)C[C@H]1C	i
COc1ccc(NC(=O)Nc2ccc3c(c2)C(=O)N([C@H](C)CO)C[C@H](C)[C@@H](CN(C)S(=O)(=O)c2ccc(C)cc2)OCCCC[C@@H](C)O3)cc1	i
CC(=O)N1[C@H](CO)[C@H]2c3ccccc3N(S(=O)(=O)c3cccc(C)c3)C[C@H]21	i
CCCC(=O)N1CC2(C1)CN(C(=O)Nc1ccc(F)cc1)[C@@H](CO)c1c2c2ccc(OC)cc2n1C	i
C/C=C/c1ccc2c(c1)O[C@@H](CN(C)C(=O)Cc1ccccn1)[C@@H](C)CN([C@H](C)CO)S2(=O)=O	i
Cc1noc(C)c1NC(=O)N(C)C[C@@H]1Oc2ccc(NC(=O)C3CCCCC3)cc2CC(=O)N([C@@H](C)CO)C[C@H]1C	i
C[C@H](CO)N1C[C@H](C)[C@@H](CN(C)C(=O)CCCN(C)C)OCCCC[C@H](C)Oc2ccc(NC(=O)NC3CCCCC3)cc2C1=O	i
Cc1noc(C)c1C(=O)N(C)C[C@@H]1OCc2ccccc2-c2ccccc2C(=O)N([C@@H](C)CO)C[C@H]1C	i
CCCNC(=O)C[C@@H]1CC[C@H]2[C@@H](COC[C@H](O)CN2Cc2ccccc2F)O1	i
O=C(C[C@@H]1CC[C@H]2[C@@H](COC[C@H](O)CN2C(=O)Nc2cccc(F)c2)O1)NCc1ccccc1Cl	i
CCC(=O)N1[C@H](CO)[C@@H](c2ccccc2)[C@@H]1CN(CC)C(=O)c1ccccc1	i
COCC#Cc1ccc([C@H]2[C@@H](CO)N3CCCCN(C(=O)CN(C)C)C[C@@H]23)cc1	i
C/C=C/c1ccc([C@H]2[C@@H](CO)N(C(C)=O)[C@H]2CNC(=O)c2ccncc2)cc1	i
O=C(C[C@@H]1CC[C@@H](NC(=O)Nc2ccccc2)[C@@H](CO)O1)NCc1cccc(F)c1	i
COCC#Cc1cnc2c(c1)C(=O)N([C@H](C)CO)C[C@H](C)[C@@H](CN(C)S(C)(=O)=O)O2	i
Cc1noc(C)c1NC(=O)N[C@H]1CC[C@H](CC(=O)NCc2ccc(Cl)c(Cl)c2)O[C@@H]1CO	i
C[C@@H]1CCCCO[C@@H](CN(C)C(=O)c2ccccc2)[C@H](C)CN([C@@H](C)CO)C(=O)c2cc(NC(=O)CCC(F)(F)F)ccc2O1	i
CCCNC(=O)C[C@H]1CC[C@H]2[C@@H](COC[C@H](O)CN2C(=O)Nc2ccc3c(c2)OCO3)O1	i
COc1ccc(-c2ccc3n(c2=O)C[C@H]2[C@H](CO)[C@@H](C(=O)N(C)C)N(CC4CC4)[C@@H]32)cc1	i
COc1ccccc1-c1ccc2n(c1=O)C[C@H]1[C@H](CO)[C@@H](C(=O)N(C)C)N(C(=O)c3cccnc3)[C@@H]21	i
C[C@H]1CN([C@@H](C)CO)C(=O)c2cc(NC(=O)Nc3ccc(F)cc3)ccc2O[C@H]1CN(C)Cc1ccncc1	i
COC(=O)C[C@@H]1C=C[C@@H](NC(=O)c2ccccc2)[C@H](CO)O1	i
C[C@@H]1CCCCO[C@@H](CN(C)C(=O)Nc2ccccc2)[C@@H](C)CN([C@@H](C)CO)C(=O)c2cc(NC(=O)Nc3ccc(C(F)(F)F)cc3)ccc2O1	i
COc1cccc(CN(C)C[C@@H]2OCc3ccccc3-c3c(n(C)c4ccccc34)C(=O)N([C@@H](C)CO)C[C@@H]2C)c1	i
O=C(C[C@H]1CC[C@@H](NC(=O)C2CCC2)[C@H](CO)O1)NC1CCC1	i
COc1ccc2c3c([nH]c2c1)[C@@H](CO)N(C(=O)C1CCC1)CC31CCN(Cc2cccc(F)c2)CC1	i
CCNC(=O)C[C@@H]1CC[C@H]2[C@@H](COc3ccc(NC(=O)c4ccccc4Cl)cc3C(=O)N2C)O1	i
C[C@@H]1CN([C@@H](C)CO)S(=O)(=O)c2ccc(C#Cc3ccncc3)cc2O[C@H]1CN(C)C(=O)c1ccncc1	i

Remaining list, next part:
SMILES	FGF22 binding
COc1ccc(C(C)(C)C)cc1N1C(=O)[C@@H]2CSCCS(=O)(=O)N2C1=O	i
CN1CCN(C(=O)C[C@H]2CC[C@H](NS(=O)(=O)c3cccc(F)c3)[C@@H](CO)O2)CC1	i
C[C@H](CO)N1C[C@H](C)[C@H](CN(C)S(C)(=O)=O)Oc2ncc(C#CC3CC3)cc2C1=O	i
COC(=O)[C@H]1[C@H](CO)[C@H]2Cn3c(ccc(C4=CCCCC4)c3=O)[C@H]2N1C(=O)c1ccccc1F	i
CCC(=O)Nc1ccc2c(c1)OC[C@@H](C)N(C(=O)C1CC1)C[C@@H](C)[C@@H](OC)CN(C)C2=O	i
Cc1noc(C)c1NC(=O)Nc1ccc2c(c1)C(=O)N([C@H](C)CO)C[C@H](C)[C@H](CN(C)C(=O)c1ccccc1)OCCCC[C@H](C)O2	i
CO[C@@H]1CN(C)C(=O)c2ccc(NC(=O)C3CCC3)cc2OC[C@H](C)N(C)C[C@H]1C	i
CO[C@@H]1CN(C)C(=O)c2ccc(NS(C)(=O)=O)cc2OC[C@H](C)N(C)C[C@H]1C	i
CCC(=O)N1CC2(C1)[C@H](c1ccc(-c3ccccc3C)cc1)[C@H](CO)N2C(C)=O	i
C[C@H]1CN([C@@H](C)CO)C(=O)c2cc(NS(C)(=O)=O)ccc2O[C@@H]1CN(C)Cc1ccc2c(c1)OCO2	i
COc1ccc(NC(=O)Nc2ccc3c(c2)[C@@H]2C[C@H](CC(=O)N[C@@H](C)c4ccccc4)O[C@H](CO)[C@@H]2O3)cc1	i
O=C(c1ccc(F)cc1)C1CCN(CCCn2c(=O)[nH]c3ccccc32)CC1	i
CO[C@@H]1CN(C)C(=O)c2ccc(NS(=O)(=O)c3ccccc3)cc2OC[C@H](C)NC[C@@H]1C	i
O=C(NCC[C@@H]1CC[C@@H](NS(=O)(=O)c2cccc(F)c2)[C@H](CO)O1)c1cnccn1	i
CC(=O)N(C)C[C@H]1Oc2ncc(-c3ccc(C(=O)N(C)C)cc3)cc2C(=O)N([C@@H](C)CO)C[C@@H]1C	i
O=C(NCC[C@H]1CC[C@H](NC(=O)C2CC2)[C@@H](CO)O1)Nc1ccc(Cl)cc1	i
COc1ccc(S(=O)(=O)Nc2ccc3c(c2)CC(=O)N([C@H](C)CO)C[C@@H](C)[C@H](CN(C)S(=O)(=O)c2ccc(OC)cc2)O3)cc1	i
Cc1noc(C)c1NC(=O)Nc1ccc2c(c1)C(=O)N([C@H](C)CO)C[C@@H](C)[C@@H](CN(C)Cc1ccc(C(=O)O)cc1)OCCCC[C@@H](C)O2	i
C[C@@H]1CN([C@H](C)CO)C(=O)Cc2cc(NS(=O)(=O)c3ccccc3)ccc2O[C@@H]1CN(C)Cc1ccc(C(F)(F)F)cc1	i
C[C@H]1CN([C@@H](C)CO)C(=O)c2cc(NS(=O)(=O)c3ccc(Cl)cc3)ccc2O[C@@H]1CN(C)S(=O)(=O)c1ccc(F)cc1	i
COc1ccccc1CN1C[C@@H](C)[C@@H](OC)CN(C)C(=O)c2ccc(NC(C)=O)cc2OC[C@@H]1C	i
CC(C)CC#Cc1cnc2c(c1)C(=O)N([C@@H](C)CO)C[C@H](C)[C@@H](CN(C)C(=O)c1cnccn1)O2	i
CNC(=O)C[C@@H]1CC[C@@H]2[C@@H](COc3ccc(NC(=O)c4ccc(OC)cc4)cc3C(=O)N2C)O1	i
O=C(NC1CCCC1)[C@H]1[C@H](CO)[C@H]2Cn3c(cccc3=O)[C@@H]1N2Cc1cc(F)ccc1F	i
COc1ccc(S(=O)(=O)Nc2ccc3c(c2)C(=O)N([C@H](C)CO)C[C@@H](C)[C@H](CN(C)S(=O)(=O)c2ccc(OC)cc2)OCCCC[C@H](C)O3)cc1	i
Cc1ccc(S(=O)(=O)N[C@H]2CC[C@@H](CCn3cc(C(C)C)nn3)O[C@@H]2CO)cc1	i

Not a retest: entries from further up.
SMILES	FGF22 binding
O=C(NCC[C@@H]1CC[C@@H](NS(=O)(=O)c2cccc(F)c2)[C@H](CO)O1)c1cnccn1	i
CC(=O)N(C)C[C@H]1Oc2ncc(-c3ccc(C(=O)N(C)C)cc3)cc2C(=O)N([C@@H](C)CO)C[C@@H]1C	i
O=C(NCC[C@H]1CC[C@H](NC(=O)C2CC2)[C@@H](CO)O1)Nc1ccc(Cl)cc1	i
COc1ccc(S(=O)(=O)Nc2ccc3c(c2)CC(=O)N([C@H](C)CO)C[C@@H](C)[C@H](CN(C)S(=O)(=O)c2ccc(OC)cc2)O3)cc1	i
Cc1noc(C)c1NC(=O)Nc1ccc2c(c1)C(=O)N([C@H](C)CO)C[C@@H](C)[C@@H](CN(C)Cc1ccc(C(=O)O)cc1)OCCCC[C@@H](C)O2	i
C[C@@H]1CN([C@H](C)CO)C(=O)Cc2cc(NS(=O)(=O)c3ccccc3)ccc2O[C@@H]1CN(C)Cc1ccc(C(F)(F)F)cc1	i
C[C@H]1CN([C@@H](C)CO)C(=O)c2cc(NS(=O)(=O)c3ccc(Cl)cc3)ccc2O[C@@H]1CN(C)S(=O)(=O)c1ccc(F)cc1	i
COc1ccccc1CN1C[C@@H](C)[C@@H](OC)CN(C)C(=O)c2ccc(NC(C)=O)cc2OC[C@@H]1C	i
CC(C)CC#Cc1cnc2c(c1)C(=O)N([C@@H](C)CO)C[C@H](C)[C@@H](CN(C)C(=O)c1cnccn1)O2	i
CNC(=O)C[C@@H]1CC[C@@H]2[C@@H](COc3ccc(NC(=O)c4ccc(OC)cc4)cc3C(=O)N2C)O1	i

Bioassay records as filed in PubChem BioAssay.
